# Screening data deposited in PubChem by Johns Hopkins Ion Channel Center.
# KCNQ2 inh: KCNQ2 potassium channel inhibitors, primary screen, cell-based, CHO-K1, FluxOR thallium flux, B-score (AID 2156). Potassium voltage-gated channel subfamily KQT member 2 (Rattus norvegicus), O88943. B-score at 10 µM. 310,000 compounds, 1.1% hits. 20 min; stronger effect = lower value; only compounds with negative scores are shown here; some inactives read as strong as hits;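 active = fluorescence ratio B-score at most minus 3 library SDs, with starting brightness B-score within 2 library SDs, cut at about -5.5 in these data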
# Target sequence (O88943 whole entry, looked up): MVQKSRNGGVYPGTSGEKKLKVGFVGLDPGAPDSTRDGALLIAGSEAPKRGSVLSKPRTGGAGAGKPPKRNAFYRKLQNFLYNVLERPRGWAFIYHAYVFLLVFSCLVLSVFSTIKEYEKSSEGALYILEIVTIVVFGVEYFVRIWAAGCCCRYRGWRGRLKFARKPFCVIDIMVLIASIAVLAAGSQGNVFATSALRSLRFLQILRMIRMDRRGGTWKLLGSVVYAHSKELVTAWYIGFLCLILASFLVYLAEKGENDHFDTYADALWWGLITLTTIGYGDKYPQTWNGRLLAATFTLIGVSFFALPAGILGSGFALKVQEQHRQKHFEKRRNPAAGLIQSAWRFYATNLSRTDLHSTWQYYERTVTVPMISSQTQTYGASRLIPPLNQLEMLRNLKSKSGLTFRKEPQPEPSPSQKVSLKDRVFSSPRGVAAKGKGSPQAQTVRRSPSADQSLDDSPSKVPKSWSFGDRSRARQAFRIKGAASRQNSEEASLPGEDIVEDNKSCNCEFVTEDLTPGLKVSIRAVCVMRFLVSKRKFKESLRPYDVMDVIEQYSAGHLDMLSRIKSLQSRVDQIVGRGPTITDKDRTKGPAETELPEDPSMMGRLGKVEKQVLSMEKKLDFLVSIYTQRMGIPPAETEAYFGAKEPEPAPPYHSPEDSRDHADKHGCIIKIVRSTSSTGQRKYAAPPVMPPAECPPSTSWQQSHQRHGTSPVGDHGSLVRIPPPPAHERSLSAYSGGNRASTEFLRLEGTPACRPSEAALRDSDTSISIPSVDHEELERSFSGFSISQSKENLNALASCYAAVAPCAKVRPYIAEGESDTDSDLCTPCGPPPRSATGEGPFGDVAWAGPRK
# KCNQ2 inh baseline: further read-out of KCNQ2 inh, marked with its call; B-score; measured here: initial fluorescence intensity artifact check;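 brightness before thallium and not channel activity; 0 = typical well and far values either way flag optical interference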
# Starred values were filed as active, the others as inactive; i = inactive. Only part of the results is shown, so the mix of outcomes need not match the whole.
SMILES,KCNQ2 inh,KCNQ2 inh baseline
CCc1ccc(NC(=O)CN(c2cccc(C)c2)S(C)(=O)=O)cc1,i,-1.1
Cn1cccc1-c1nc2ccccc2n1C,i,1.3
ONc1cccnc1-n1nc(C(F)(F)F)cc1C(F)(F)F,i,0.54
CC(Oc1ccc(-c2ccccc2)cc1)C(=O)N1CCOCC1 (stereo not given),i,0.03
N#Cc1c(C(F)(F)F)cc(-c2ccccc2)nc1SCC(=O)N1CCOCC1,i,0.17
Brc1ccc(CSc2nnc(-c3cnccn3)n2Cc2ccco2)cc1,i,-0.96
COc1cccc(/C=N/NC(=S)Nc2cccc(C(=O)O)c2)c1O,i,1.9
CCOC(=O)c1c(C)[nH]c(C(=O)COC(=O)C(C)Oc2ccc(Cl)cc2Cl)c1C (stereo not given),i,-0.17
Nc1ccc(/C=C/C(=O)c2ccco2)cc1,i,3.6
Cc1ccc(C)c(COc2coc(CN3CCN(C(=O)c4ccco4)CC3)cc2=O)c1,i,-2.5
CN1CCN(C(=O)CC23CC4CC(CC(C4)C2)C3)CC1,i,0.01
COc1ccc(C2CC(c3ccccc3)=NN2C(=O)COC(=O)c2ccc(Cl)nc2)cc1 (stereo not given),i,0.62
CCOC(=O)C(Cc1c[nH]c2ccccc12)NC(=O)c1ccccc1Br (stereo not given),i,-0.22
O=C(CSc1ncc(-c2ccccc2)nn1)NCc1ccco1,i,1.9
COc1ccc(CNC(=O)C(=O)NCC2OCCN2S(=O)(=O)c2cccs2)cc1 (stereo not given),i,-0.92
O=C1CCCc2c1cc(C(=O)NCCCN1CCOCC1)c(=O)n2-c1ccc(Cl)cc1,i,-0.5
Cc1cccc(N2C(=O)C(O)=C(C(=O)c3cccs3)C2c2ccc(Cl)cc2)n1 (stereo not given),i,0.62
CC(=O)Nc1ccc(S(=O)(=O)NNC(=O)c2ccc3c(c2)OCO3)cc1,i,1.2
Nc1c(N(CCO)C(=O)COc2ccc(Cl)cc2)c(=O)[nH]c(=O)n1Cc1ccccc1,i,-0.31
Cc1cc(C)c(NC(=O)CSc2nc3ccncc3[nH]2)c(C)c1,i,-0.6
Cc1cccc(C)c1OCc1cc(C(=O)N2CCC(c3ccncc3)CC2)no1,i,-0.26
O=C(Nc1ccccc1)c1ccc(-c2ccc(Br)cc2)o1,i,1.6
C=CCN(C(=O)c1oc2c(Cl)cc(C)cc2c1C)C1CCS(=O)(=O)C1 (stereo not given),i,-1.1
Cc1nc(C(=O)Nc2cccc(Cl)c2)nn1-c1cc(OC(C)C)c(Cl)cc1Cl,i,-0.23
CN(C)[C@@H](CO)c1nnc([C@H](CC(=O)O)NC(=O)C2CCNCC2)o1,i,-0.3
O=C(CSc1nc2nc[nH]c2c(=O)[nH]1)NC1CCCCC1,i,-0.18
Cc1cc(NC(=O)c2ccc(NC(=O)C(C)Oc3ccccc3)cc2)no1 (stereo not given),i,-0.72
Cc1cccc(CC2CC(=O)N(CCc3ccc4c(c3)OCO4)C2=O)c1 (stereo not given),i,2.3
O=C(Cn1cc2c(n1)CCCCC2)Nc1c(F)c(F)cc(F)c1F,i,-0.04
COc1cccc(/C=C2\Oc3ccc(O)cc3C2=O)c1O,i,3.5
CCNc1nc(NCC)n2c(SCC(=O)Nc3ccc(C)c(C)c3)nnc2n1,i,0.97
O=C(NCCc1ccccc1)C1CCC(Cn2c(=O)c3ccccc3n(Cc3cccc(Cl)c3)c2=O)CC1 (stereo not given),i,0.04
CC1=C(C(=O)OCc2ccccc2)C(c2ccc(C)o2)C2=C(CCCC2=O)N1 (stereo not given),i,-0.08
O=C(O)COCC(=O)NCc1nc(-c2ccc(C(F)(F)F)cc2)no1,i,0.86
Cc1ccc(NC(=O)COc2ccc(-n3cnnn3)cc2)cc1C,i,-1.6
Cc1nc2cc(NC(=O)NC3CC3)ccc2n1C,i,0.38
CC(C)C(OC(=O)CN1C(=O)COc2ccccc21)C(=O)NC1CCCC1 (stereo not given),i,-0.34
C=CCOc1ccc(/C=C/C(=O)OCC(=O)NCCC2=CCCCC2)cc1,i,1.1
COc1ccc(OCc2cccc(C(=O)NN)c2)cc1,i,0.03
O=C(NC1CCCC1)C(c1cccs1)N(Cc1ccco1)C(=O)c1csnn1 (stereo not given),i,2

# 5 entries picked at random from the list so far:
SMILES,KCNQ2 inh,KCNQ2 inh baseline
CCNc1nc(NCC)n2c(SCC(=O)Nc3ccc(C)c(C)c3)nnc2n1,i,0.97
Cc1ccc(NC(=O)COc2ccc(-n3cnnn3)cc2)cc1C,i,-1.6
O=C(NC1CCCC1)C(c1cccs1)N(Cc1ccco1)C(=O)c1csnn1 (stereo not given),i,2
C=CCOc1ccc(/C=C/C(=O)OCC(=O)NCCC2=CCCCC2)cc1,i,1.1
CC1=C(C(=O)OCc2ccccc2)C(c2ccc(C)o2)C2=C(CCCC2=O)N1 (stereo not given),i,-0.08

# The list goes on.
SMILES,KCNQ2 inh,KCNQ2 inh baseline
Cc1ccc(Nc2nc(C)c3c(n2)CC(C)CC3=O)c(C)c1 (stereo not given),i,-1.4
COc1cc(/C=N\NC(=O)CNC(=O)C(c2ccccc2)c2ccccc2)ccc1O,i,0.05
CCN(CC)C(=O)C1CC(=O)OC1(C)C (stereo not given),i,-0.64
N=C1/C(=C\c2ccc(OC(=O)c3ccc(F)cc3)cc2)C(=O)N=C2SC(N3CCCC3)=NN12,i,1.9
O=C(Nc1nc(-c2ccc(F)cc2)cs1)C1CCN(C(=O)c2ccc(F)cc2)CC1,i,-0.21
Cc1ccc2nc(NCCCNC(=O)c3cnccn3)c(C#N)cc2c1,i,0.34
O=C(CSc1nc2[nH]ncc2c(=O)n1-c1ccccc1)N1CCCCCC1,i,0.1
CC(=O)Nc1ccc(NC(=O)c2nc(S(=O)(=O)Cc3ccccc3)ncc2Cl)cc1,i,0.03
COC(=O)c1ccccc1NC(=O)CN1CCN(c2ccccn2)CC1,i,2
O=C(Nc1cc([N+](=O)[O-])ccc1Cl)c1ccc2c(c1)OCO2,i,-0.79

# In the list so far, 3 have a CF3 group.
SMILES,KCNQ2 inh,KCNQ2 inh baseline
ONc1cccnc1-n1nc(C(F)(F)F)cc1C(F)(F)F,i,0.54
N#Cc1c(C(F)(F)F)cc(-c2ccccc2)nc1SCC(=O)N1CCOCC1,i,0.17
O=C(O)COCC(=O)NCc1nc(-c2ccc(C(F)(F)F)cc2)no1,i,0.86

# Other structures.
SMILES,KCNQ2 inh,KCNQ2 inh baseline
COc1ccccc1N1CCN(C(CNS(=O)(=O)c2ccccc2)c2ccccc2)CC1 (stereo not given),i,0.49
CN(Cc1ccccc1)C(=O)CN1C(=O)NC(C)(c2ccc(C(C)(C)C)cc2)C1=O (stereo not given),i,-0.37
COc1ccc(C2Nc3ccccc3C(=O)N2c2ccc(C)cc2)cc1Cn1cc([N+](=O)[O-])cn1 (stereo not given),i,0.9
O=C(C1CCC1)N1CCc2cc(S(=O)(=O)Nc3ccc4c(c3)OCCO4)ccc21,i,-2.4
COc1ccc(C(c2nnnn2C2CCCC2)N2CCN(C(=O)c3ccco3)CC2)cc1OC (stereo not given),i,-1.9
Cc1ccc2nc(SCC(=O)Nc3ccc(C(N)=O)cc3)[nH]c2c1,i,-0.08
COc1ccc(-c2noc(C3CCCN(C(=O)c4ccc(C)cc4)C3)n2)cc1 (stereo not given),i,0.58
CCCOc1ccc(C2NC(=O)CCC2[N+](=O)[O-])cc1 (stereo not given),i,1.2
COc1ccc(N2CCN(CC(=O)Nc3ccccc3SC)CC2)cc1,i,-2.1
Cc1ccc2sc(N(CCCN(C)C)C(=O)c3ccc(S(=O)(=O)N(C)Cc4ccccc4)cc3)nc2c1C,i,0.01

# Arranged by SMILES length (ascending): some entries from above
SMILES,KCNQ2 inh,KCNQ2 inh baseline
COc1ccc(N2CCN(CC(=O)Nc3ccccc3SC)CC2)cc1,i,-2.1
COc1ccccc1N1CCN(C(CNS(=O)(=O)c2ccccc2)c2ccccc2)CC1 (stereo not given),i,0.49
COc1ccc(C(c2nnnn2C2CCCC2)N2CCN(C(=O)c3ccco3)CC2)cc1OC (stereo not given),i,-1.9

# (further entries)
SMILES,KCNQ2 inh,KCNQ2 inh baseline
O=C(N/N=C/c1ccc(OC(=O)c2ccccc2)cc1)c1cccc(O)c1,i,0.37
CC1CC(C)CN(c2cc(=O)n(Cc3ccc(F)cc3)c(=O)[nH]2)C1 (stereo not given),i,0.59
CCCCC1(C)OC(=O)C(=Cc2ccc(N(CC)CC)cc2)C(=O)O1 (stereo not given),i,1.4
Cc1ccc(-n2c(SCc3ccc(C#N)cc3)nnc2-c2ccccn2)cc1,i,2.4
CC1(CCC(=O)N2CCCC(Nc3ccc(F)cc3)C2)CC1 (stereo not given),i,0.36
COCCNc1nc(N)c([N+](=O)[O-])c(NCC2CCCO2)n1 (stereo not given),i,0.99
CCCCN(CC)C(=O)Cc1ccc(Br)cc1,i,-0.67
O=C(COC(=O)/C=C/c1ccc(C(F)(F)F)cc1)NC1CCS(=O)(=O)C1 (stereo not given),i,-0.59
CCCN1CCc2c(sc(NC(=O)c3ccc(S(=O)(=O)N(C)c4ccccc4)cc3)c2C(=O)NC)C1,i,1.5
O=C(CNS(=O)(=O)c1ccc(Br)s1)NCCc1ccc(Cl)cc1,i,-0.68
Cc1ccsc1CN(C(=O)c1ccccc1)C1CCS(=O)(=O)C1 (stereo not given),i,2.3
O=C(O)C1C2CCC(O2)C1C(=O)Nc1ccc(F)c(Cl)c1 (stereo not given),i,-1.9
CC(C)(C)NC(=O)CCN(/N=C/c1ccccc1)C1=NS(=O)(=O)c2ccccc21,i,-1.7
O=c1c(OC2OC(CO)C(O)C(O)C2O)c(-c2ccc(O)c(O)c2)oc2cc(O)cc(O)c12 (stereo not given),i,0.52
CC(C)(C)c1ccc(NC(=O)C2CCCN(c3cnccn3)C2)cc1 (stereo not given),i,-2.8
O=C(NCc1cccnc1)c1ccc2c(c1)C(=O)N(Cc1ccccc1)C2=O,i,0.23
COc1ccccc1N1CCN(S(=O)(=O)c2c[nH]c(=O)[nH]c2=O)CC1,i,-0.86
CC1CN(c2ncnc3c2oc2ccccc23)CC(C)O1 (stereo not given),i,-1.6
O=C1CC(C(=O)N2CCCc3ccccc32)CN1c1ccc(Cl)cc1 (stereo not given),i,-3
CC(C)(C)c1cc(OC(=O)c2ccccc2F)ccc1O,i,-0.01
O=C(N/N=C/c1ccc(N2CCOCC2)cc1)c1ccc(O)cc1,i,-1.3
COc1cccc(C(=O)OCC(=O)c2ccc(Br)s2)c1,i,0.83
COc1ccccc1-n1cc(-c2ccccc2)[nH]c1=S,i,-0.89
CCOC(=O)CC(=O)CSc1nc(-c2ccccc2)cc(-c2ccc(Cl)cc2)c1C#N,i,1
Cn1c(=O)n(C)c2cc(NS(=O)(=O)c3ccc(Br)s3)ccc21,i,2.1
COCC(=O)N(CCc1ccc(OC)cc1)Cc1nc2ccccc2c(=O)[nH]1,i,-1.6
COc1ccc(CC(NC(C)=O)C(=O)NC2CCN(c3nnnn3-c3ccccc3)CC2)cc1 (stereo not given),i,1.3
CC(C)Cn1cc(C(=O)N2CCC(C)CC2)c2c3ccccc3n(C)c2c1=O,-7*,-1.7*
O=C(Nc1ccc2[nH]ncc2c1)c1ccccc1Br,i,-0.57
N#CC1=C(N)C(C#N)(C#N)C(c2cccnc2)C2CCCC=C12 (stereo not given),i,1.9
COc1cccc(/C=N/NC(=O)CCCC(=O)NC2CCCCC2)c1,i,0.08
O=C(NC1CCCCC1)C1CC(=O)N(c2ccccc2)C1 (stereo not given),i,1.7
O=C(O)/C=C/C(=O)NCCc1ccccc1,i,2.8
N#C/C(C(=O)NCCc1ccccc1)=C1/N=C(NC(=O)c2cccs2)c2ccccc21,i,1.1
O=C(Nc1ccc(S(=O)(=O)Nc2ncccn2)cc1)c1cccnc1,i,-0.09
O=C(N/N=C/c1c(F)cccc1Cl)c1cc(C2CC2)[nH]n1,i,0.46
O=C(CCNS(=O)(=O)c1cccs1)N1CCc2ccccc2C1,i,2.5
Cc1ccc(S(=O)(=O)N2CCCC(C(=O)NCc3ccco3)C2)cc1Cl (stereo not given),i,-1.7
COc1ccc(CC(=O)NNC(=O)COc2ccc(Br)cc2C)cc1OC,i,0.76
CN1C(=O)c2ccccc2C(C(=O)O)C1c1cccc([N+](=O)[O-])c1 (stereo not given),i,0.59

# Laid out differently: results already given.
SMILES | KCNQ2 inh | KCNQ2 inh baseline
O=C(Nc1ccc(S(=O)(=O)Nc2ncccn2)cc1)c1cccnc1 | i | -0.09
O=C(N/N=C/c1c(F)cccc1Cl)c1cc(C2CC2)[nH]n1 | i | 0.46
O=C(CCNS(=O)(=O)c1cccs1)N1CCc2ccccc2C1 | i | 2.5
Cc1ccc(S(=O)(=O)N2CCCC(C(=O)NCc3ccco3)C2)cc1Cl (stereo not given) | i | -1.7

# Next section
SMILES,KCNQ2 inh,KCNQ2 inh baseline
O=C(N/N=C/C=C/c1ccc([N+](=O)[O-])cc1)C1COc2ccccc2O1 (stereo not given),i,-0.47
Cc1cccc(C)c1NC(=O)Cn1nnc(C(=O)Nc2ccc(F)cc2F)c1N,i,-0.31
Nc1ncc(Br)cc1S(=O)(=O)NCCC(=O)NC1CCCCC1,i,3.2
CC(CCc1ccccc1)NC(=O)c1ccco1 (stereo not given),i,-0.6
O=C(c1cnn(-c2cccc(F)c2)c1)c1ccccc1O,i,-0.34
CCN(CC(O)Cn1c2ccccc2c2ccccc21)S(=O)(=O)c1ccc(F)cc1 (stereo not given),i,0.13
CCn1c(SCc2ccc(Cl)cc2Cl)nc2nc3c(cc2c1=O)CCCC3,i,-0.11
O=C(CC1C(=O)NCCN1Cc1ccc(-c2ccccc2)cc1)NCC1CCOCC1 (stereo not given),i,-1.9
Cn1cnnc1SCCn1c(N2CCCCC2)nc2c1c(=O)[nH]c(=O)n2C,i,0.03
Cc1ccc(-c2nc3ccccn3c2NCc2ccc3c(c2)OCO3)cc1,i,-2.2
Cc1nn(Cc2ccccc2)c2c1C(c1ccccc1)C(C#N)=C(N)O2 (stereo not given),i,0.57
COCCNC(=O)c1c(N)n(-c2cccc(C)c2)c2nc3ccccc3nc12,i,-1.6
